Ecoli rRNA inh: selective bacterial rRNA inhibition in E. coli. E. coli WT GFP vs humanized-ribosome RFP mutants, fluorescence, 24 h; active compounds read low; DMSO median 0, no signal -100. GFP signal change (wild-type ribosome), % (no concentration beside the values). actives 1.6% (n = 350,000);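 active = significant combined selectivity score with lowered wild-type GFP, culture density cut under 30%, mutant RFP and density less affected; inactive = any of these conditions unmet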; note: one replicate is shown; some compounds called inactive have numbers as strong as hits
AF4-AF9 inh: blocks AF4 peptide binding to human AF9; AID 651704; AlphaScreen, biotin-AF4 peptide binding to FLAG-AF9; actives 0.47% (n = 350,000); inhibition, % at 10 µM; P42568;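 active = every replicate reaching a set inhibition limit, whatever the replicate mean, cut at about 25% in these data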;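 note: 0% = plate neutral control median and 100% = total signal loss; the record names both 10 and 1 µM as test concentration; the first replicate is given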
Target sequence (P42568 whole entry, looked up): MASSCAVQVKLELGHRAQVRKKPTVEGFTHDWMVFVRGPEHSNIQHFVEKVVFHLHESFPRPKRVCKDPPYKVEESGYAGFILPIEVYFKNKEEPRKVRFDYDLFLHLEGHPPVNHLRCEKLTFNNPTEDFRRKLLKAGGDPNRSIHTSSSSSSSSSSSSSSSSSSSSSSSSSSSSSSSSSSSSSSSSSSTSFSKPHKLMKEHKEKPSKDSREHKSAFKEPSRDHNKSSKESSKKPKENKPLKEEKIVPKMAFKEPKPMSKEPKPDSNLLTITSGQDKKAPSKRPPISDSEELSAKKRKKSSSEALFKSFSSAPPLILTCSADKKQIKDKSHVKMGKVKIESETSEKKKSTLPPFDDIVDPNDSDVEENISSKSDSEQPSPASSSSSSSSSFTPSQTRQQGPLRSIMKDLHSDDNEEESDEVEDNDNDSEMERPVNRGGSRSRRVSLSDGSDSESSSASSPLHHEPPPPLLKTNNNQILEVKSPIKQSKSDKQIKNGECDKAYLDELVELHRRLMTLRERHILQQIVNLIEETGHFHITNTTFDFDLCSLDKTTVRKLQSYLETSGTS
Ecoli rRNA inh OD600: recorded beside Ecoli rRNA inh, whose call it bears; OD600 change, %; measured here: OD600 growth;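 optical density of the mix in the first replicate; 0 = DMSO median and -100 = no signal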
Ecoli rRNA inh RFP: second read-out of Ecoli rRNA inh, no call of its own (marks repeat the call); RFP signal change, %; measured here: RFP humanized mutant strains;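 first replicate; 0 = DMSO median and -100 = no signal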
Numbers without * were called inactive; & = joins results of further samples. Only part of the results is shown; rates above refer to the full screens.

Ecoli rRNA inh,Ecoli rRNA inh OD600,Ecoli rRNA inh RFP,AF4-AF9 inh,structure
1.9,10.6,-0.5,-2.5,N#C[C@H]1[C@@H](c2ccccc2-c2cccc(F)c2)[C@@H](CO)N1C(=O)c1cccnc1
1.5,-29.3,23.9,3.2,C[C@H]1CN([C@@H](C)CO)S(=O)(=O)c2ccc(C#Cc3ccc(F)cc3)cc2O[C@H]1CN(C)CC1CC1
-4.2,-18.0,-1.4,2.8,C/C=C/c1ccc([C@H]2[C@H]3CN(S(=O)(=O)c4ccccc4)CC(=O)N3[C@H]2CO)cc1
5.4,12.5,-0.1,-2.6,CN(C)C(=O)C[C@H]1CC[C@@H]2[C@H](COc3ccc(NC(=O)C4CCC4)cc3C(=O)N2C)O1
0.0,8.6,3.0,1.8,OC[C@H]1N[C@@H](CNCC2CCC2)[C@@H]1c1ccc(C2=CCCCC2)cc1
5.5,8.4,-2.8,-2.0,COc1ccc2c3c([nH]c2c1)[C@@H](CO)N(C)CC31CCN(C(=O)c2ccccn2)CC1
2.3,-1.4,-3.0,1.5,CN1CCN(C(=O)C[C@@H]2C[C@H]3c4cc(NC(=O)C5CCOCC5)ccc4O[C@H]3[C@H](CO)O2)CC1
1.3,10.4,-3.7,-6.0,Cc1ccc(S(=O)(=O)Nc2ccc3c(c2)C(=O)N([C@H](C)CO)C[C@H](C)[C@H](CN(C)C(=O)Cc2ccccc2)OCCCC[C@@H](C)O3)cc1
-1.9,17.1,2.9,0.1,Cc1ccc(-c2ccc([C@H]3[C@@H](CO)N4C(=O)CN(C(=O)Cc5ccccn5)C[C@@H]34)cc2)cc1
3.9,17.1,-0.3,-3.2,CC=Cc1ccc2n(c1=O)C[C@H]1[C@H](CO)[C@@H](C(=O)NC3CCCC3)N(C(=O)C3CC3)[C@@H]21 (mixture of isomers)
-3.9,-1.1,1.7,-3.5,COc1ccccc1-c1cn(CC[C@H]2CC[C@@H](NC(=O)C3CCCC3)[C@@H](CO)O2)nn1
8.3,13.2,-3.3,-5.3,O=C(c1ccc(F)cc1)N1CC(=O)N2[C@H](CO)[C@@H](c3ccc(C#CC4CCCCC4)cc3)[C@@H]2C1
-0.4,3.1,1.9,-3.5,Cc1ccc(S(=O)(=O)N(C)C[C@H]2OCCCC[C@H](C)Oc3ccc(NC(=O)CCC(F)(F)F)cc3C(=O)N([C@@H](C)CO)C[C@H]2C)cc1
-2.0,-3.0,-0.9,-2.8,C[C@H](CO)N1C[C@H](C)[C@H](CN(C)C(=O)c2ccccc2)OCCCC[C@H](C)Oc2ccc(NC(=O)c3ccncc3)cc2C1=O
1.9,-29.6,10.4,7.9,C/C=C/c1ccc([C@@H]2[C@H]3CN(Cc4ccc(C)cc4)CC(=O)N3[C@H]2CO)cc1
-1.8,-8.2,0.5,-1.2,CN(C)CCCNC(=O)C[C@@H]1CC[C@H]2[C@@H](COC[C@@H](O)CN2CC2CCCCC2)O1
-1.5,9.0,-2.8,-2.3,CN(C)CC(=O)N1[C@H](CO)[C@@H](c2ccccc2)C12CN(C(=O)C1CCCC1)C2
4.3,6.6,3.7,0.3,O=C(Cc1cccnc1)N1CC(=O)N2[C@@H](CO)[C@@H](c3ccc(C#CC4CCCC4)cc3)[C@@H]2C1
2.1,-3.8,5.8,8.2,C/C=C/c1ccc([C@H]2[C@@H](CO)N(C(=O)CN(C)C)C23CN(C(=O)C2CCCCC2)C3)cc1
-12.0,-26.5,3.4,-0.1,COc1cccc(CNS(=O)(=O)c2cc(Br)ccc2Br)c1OC
-0.8,6.3,-0.4,-1.7,C[C@H]1CN([C@@H](C)CO)S(=O)(=O)c2ccc(C#CCN(C)C)cc2O[C@H]1CN(C)Cc1ccccn1
3.7,13.4,2.3,-7.3,O=C(C1CCCC1)N1CC(=O)N2[C@H](CO)[C@@H](c3ccc(-c4cccnc4)cc3)[C@H]2C1
4.7,4.6,16.8,-1.1,C/C=C/c1cccc(-c2nc(C(=O)N(C)C)cc3c2[C@@H](CCO)N([S@](=O)C(C)(C)C)C3)c1
1.5,21.4,-3.1,-4.1,O=C(Cc1cccnc1)N1CC(=O)N2[C@@H](CO)[C@H](c3ccc(C4=CCCC4)cc3)[C@@H]2C1
-10.2,-35.8,8.6,-0.9,O=C(c1ccccc1)N1CC(=O)N2[C@H](C1)[C@H](c1ccc(C#Cc3ccccc3)cc1)[C@@H]2CO

Structures shown so far that have a halogen (five):
Ecoli rRNA inh,Ecoli rRNA inh OD600,Ecoli rRNA inh RFP,AF4-AF9 inh,structure
1.9,10.6,-0.5,-2.5,N#C[C@H]1[C@@H](c2ccccc2-c2cccc(F)c2)[C@@H](CO)N1C(=O)c1cccnc1
1.5,-29.3,23.9,3.2,C[C@H]1CN([C@@H](C)CO)S(=O)(=O)c2ccc(C#Cc3ccc(F)cc3)cc2O[C@H]1CN(C)CC1CC1
8.3,13.2,-3.3,-5.3,O=C(c1ccc(F)cc1)N1CC(=O)N2[C@H](CO)[C@@H](c3ccc(C#CC4CCCCC4)cc3)[C@@H]2C1
-0.4,3.1,1.9,-3.5,Cc1ccc(S(=O)(=O)N(C)C[C@H]2OCCCC[C@H](C)Oc3ccc(NC(=O)CCC(F)(F)F)cc3C(=O)N([C@@H](C)CO)C[C@H]2C)cc1
-12.0,-26.5,3.4,-0.1,COc1cccc(CNS(=O)(=O)c2cc(Br)ccc2Br)c1OC

Carrying on:
Ecoli rRNA inh,Ecoli rRNA inh OD600,Ecoli rRNA inh RFP,AF4-AF9 inh,structure
-4.6,-22.4,25.8,3.1,CC=Cc1ccc2n(c1=O)C[C@@H]1[C@@H](CO)[C@H](C(=O)N3CCC(Cc4ccccc4)CC3)N(CCC)[C@H]21 (mixture of isomers)
-1.7,-4.2,-3.1,-1.2,Cc1ccc(CN2CC(=O)N3[C@H](CO)[C@@H](c4ccc(-c5cccnc5)cc4)[C@H]3C2)cc1
-2.3,7.6,-0.5,-9.1,N#Cc1ccc(-c2ccc([C@H]3[C@@H](CO)N4C(=O)CN(C(=O)C5CCCC5)C[C@H]34)cc2)cc1
1.7,-3.8,-1.6,-0.2,CCC(=O)N1CC(=O)N2[C@@H](CO)[C@H](c3ccc(C#CC4CCCC4)cc3)[C@@H]2C1
-0.2,7.2,-1.7,5.0,C[C@@H]1CN([C@@H](C)CO)C(=O)c2cc(N(C)C)ccc2O[C@H]1CN(C)C(=O)Nc1cccc2ccccc12
-6.8,-2.5,1.9,0.5,CCCC#Cc1ccc2c(c1)[C@@H]1[C@@H](CCN1C(=O)C1CCCCC1)[C@@H](CO)N2
-0.5,-4.6,-0.9,-0.6,O=C(O)[C@@H]1[C@@H](CO)[C@@H]2Cn3c(ccc(-c4cccc(F)c4)c3=O)[C@@H]2N1C(=O)c1ccccn1
-1.5,-2.0,-1.9,-1.7,CCCNC(=O)N1CC(=O)N2[C@H](CO)[C@H](c3ccc(-c4ccc(F)cc4)cc3)[C@@H]2C1
6.7,-1.9,-0.6,-1.6,CCC(=O)N1CC(=O)N2[C@H](CO)[C@@H](c3ccc(C#Cc4cccc(F)c4)cc3)[C@H]2C1
-2.1,-0.5,1.3,-2.4,O=C(NCC[C@H]1CC[C@@H](NS(=O)(=O)c2ccc(F)cc2)[C@@H](CO)O1)c1ccccc1F
2.9,5.2,-1.2,-2.5,C[C@@H]1CN([C@H](C)CO)C(=O)c2cc(NC(=O)Nc3ccccc3)ccc2O[C@@H](C)CCCCO[C@H]1CN(C)S(=O)(=O)c1ccccc1
-0.8,4.1,-0.6,-5.7,C[C@@H]1CN([C@@H](C)CO)C(=O)CCCn2nncc2CO[C@H]1CN(C)C(=O)CCCN(C)C
-10.9,-24.5,0.5,-0.6,N#C[C@H]1[C@H](c2ccccc2C2=CCCCC2)[C@H](CO)N1S(=O)(=O)c1cccc(F)c1
-1.9,3.3,-1.3,3.6,COc1ccc(NC(=O)Nc2ccc3c(c2)C(=O)N([C@@H](C)CO)C[C@@H](C)[C@H](CN(C)C(=O)NC2CCCCC2)O3)cc1
-4.0,-24.1,0.0,-0.7,O=C(NC1CCCC1)N1CC2(C1)[C@@H](c1ccccc1)[C@@H](CO)N2S(=O)(=O)Cc1ccccc1
-6.6,6.1,0.6,-12.9,CCC(=O)N1[C@H](CO)[C@H](c2ccc(-c3ccccc3)cc2)[C@H]1CNC(=O)COC
1.3,2.8,0.3,-2.5,CCS(=O)(=O)NCC[C@H]1CC[C@H](NC(=O)C2CC2)[C@H](CO)O1
-1.4,1.4,-1.0,10.6,CCCC#Cc1ccc([C@@H]2[C@H](CO)N3C(=O)CN(C(=O)NCCC)C[C@@H]23)cc1
3.4,15.0,-2.4,1.7,CCN1CC(=O)N2[C@@H](CO)[C@@H](c3ccc(Br)cc3)[C@@H]2C1
-11.2,-8.4,1.8,-18.2,COc1cccc(S(=O)(=O)N2CC[C@@H]3[C@@H](CO)Nc4ccc(C#Cc5cccnc5)cc4[C@@H]32)c1
-0.2,-12.8,36.8,-0.4,C/C=C/c1ccc([C@H]2[C@@H](CO)N(C(=O)C3CCCC3)[C@H]2CNCC)cc1
5.7,23.5,-0.3,-3.4,O=C(C1CCCC1)N1CC(=O)N2[C@H](C1)[C@H](c1ccc(-c3cccnc3)cc1)[C@@H]2CO
1.5,-8.4,1.1,3.3,O=C(c1ccc(F)cc1)N1CC(=O)N2[C@H](C1)[C@@H](c1ccc(C#CC3CCCC3)cc1)[C@@H]2CO
-0.5,6.3,-1.5,2.2,CO[C@H]1CN(C)C(=O)c2cc(NS(=O)(=O)c3ccc(Cl)cc3)ccc2OC[C@@H](C)N(C)C[C@H]1C
-4.0,-3.8,-1.9,-3.3,O=C(C[C@H]1CC[C@@H](NS(=O)(=O)c2ccc(F)cc2)[C@@H](CO)O1)NCc1ccccc1F
5.6,6.3,-1.9,-2.4,COCC(=O)Nc1ccc2c(c1)[C@H]1C[C@@H](CC(=O)O)O[C@@H](CO)[C@H]1O2
4.9,6.5,0.7,0.1,CC(C)CC#Cc1ccc([C@@H]2[C@@H](CO)N3C(=O)CN(S(=O)(=O)c4cccc(F)c4)C[C@@H]23)cc1
2.3,8.6,-0.8,-7.7,CCC(=O)N1CCC2(CC1)CN(C(=O)CC)[C@@H](CO)c1[nH]c3cc(OC)ccc3c12
-1.4&3.2,-0.3&6.0,-0.4&0.6,-1.0&6.7,CN(C)C(=O)c1ccc(-c2ccc(C3[C@@H]4CN(C(=O)C5CCCC5)C[C@H]3N4)cc2)cc1 (some centres undefined)
3.2,-0.7,-3.6,-8.8,C[C@@H]1CCCCO[C@H](CN(C)Cc2ccccc2)[C@@H](C)CN([C@@H](C)CO)C(=O)c2cc(NS(=O)(=O)c3cn(C)cn3)ccc2O1
0.1,4.4,-2.7,0.8,C[C@@H]1CCCCO[C@H](CN(C)S(=O)(=O)c2ccc(F)cc2)[C@@H](C)CN([C@H](C)CO)C(=O)c2cc(NC(=O)NC3CCCCC3)ccc2O1
-4.7&-1.2,-11.1&15.6,1.5&8.4,-0.2&1.6,CN(C)C(=O)c1cccc(-c2ccc(C3[C@H]4CNC[C@@H]3N4Cc3cc(-c4ccccc4)on3)cc2)c1 (some centres undefined)
-12.0,-49.2,21.2,8.4,O=C(Cc1ccccn1)N1CC(=O)N2[C@H](CO)[C@@H](c3ccc(C#CC4CCCCC4)cc3)[C@@H]2C1
-61.0&-30.0,-72.2&-43.8,-10.9&25.0,-1.1&-4.7,Cc1cccc(S(=O)(=O)N2[C@@H]3CNC[C@H]2C3c2ccc(-c3ccccc3C)cc2)c1 (some centres undefined)
8.1,-5.0,3.1,-2.2,CN(C)C(=O)c1cccc(-c2ccc([C@H]3[C@H](CO)N4C(=O)CN(C(=O)C5CCC5)C[C@@H]34)cc2)c1
2.0,-1.0,1.2,3.2,COc1cccc(CN2[C@@H]3CNC[C@H]2C3c2ccc(-c3cccnc3)cc2)c1 (some centres undefined)
-4.8,-12.2,3.5,-2.5,COc1ccc(S(=O)(=O)N(C)C[C@@H]2Oc3ccc(NS(=O)(=O)c4ccc(Cl)cc4)cc3C(=O)N([C@H](C)CO)C[C@H]2C)cc1
1.6,12.6,-0.7,1.3,O=C(Cc1cccnc1)N1CC(=O)N2[C@@H](CO)[C@H](c3ccc(C#CC4CCCC4)cc3)[C@@H]2C1
-0.1,0.4,0.9,0.1,C[C@@H]1CCCCO[C@H](CN(C)S(=O)(=O)c2cn(C)cn2)[C@H](C)CN([C@@H](C)CO)C(=O)c2cc(NC(=O)Nc3ccc(F)cc3)ccc2O1
0.7,0.6,-3.2,2.6,C/C=C/c1ccc([C@@H]2[C@H](CO)N3C(=O)CN(Cc4ccccc4)C[C@@H]23)cc1
-0.6&6.6,-28.4&20.9,4.4&-4.1,11.0&-3.7,Cn1cnc(S(=O)(=O)N2C[C@@H]3N[C@H](C2)C3c2ccc(/C=C/c3ccccc3)cc2)c1 (some centres undefined)
0.6,5.0,0.8,-5.6,CO[C@H]1CN(C)C(=O)c2ccc(NC(=O)C3CCC3)cc2OC[C@H](C)NC[C@@H]1C
1.8,4.3,-2.1,-2.2,CC=Cc1ccc2n(c1=O)C[C@H]1[C@H](CO)[C@@H](C(=O)NCCOC)[C@@H]2N1Cc1ccccc1OC (mixture of isomers)
2.0,9.4,-4.4,-3.6,CN(C)C(=O)C[C@H]1CC[C@H]2[C@H](COc3ccc(NC(=O)C4CCCCC4)cc3C(=O)N2C)O1
-4.0,3.4,-1.4,-4.0,C[C@@H]1CN([C@H](C)CO)C(=O)c2cccc(NC(=O)C3CC3)c2O[C@@H]1CN(C)S(=O)(=O)c1ccc(F)cc1

Bioassay records deposited in PubChem by Broad Institute.
